# Rce1 inhib: yeast Ras-converting enzyme inhibition; hit rate 0.27% among 290,000; yeast membranes, quenched prenylated peptide cleavage fluorescence; calls only; Q03530;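 active = fall in fluorescence gain of 50% or more versus controls, with final raw signal at or below 3038400; inconclusive = same 50% fall but final raw signal above 3038400; inactive = fall in fluorescence gain under 50%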;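 also: plate controls were neutral control wells for no effect and wells lacking membranes for full effect; tested at 10 µM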
# Target sequence (Q03530 whole entry, looked up): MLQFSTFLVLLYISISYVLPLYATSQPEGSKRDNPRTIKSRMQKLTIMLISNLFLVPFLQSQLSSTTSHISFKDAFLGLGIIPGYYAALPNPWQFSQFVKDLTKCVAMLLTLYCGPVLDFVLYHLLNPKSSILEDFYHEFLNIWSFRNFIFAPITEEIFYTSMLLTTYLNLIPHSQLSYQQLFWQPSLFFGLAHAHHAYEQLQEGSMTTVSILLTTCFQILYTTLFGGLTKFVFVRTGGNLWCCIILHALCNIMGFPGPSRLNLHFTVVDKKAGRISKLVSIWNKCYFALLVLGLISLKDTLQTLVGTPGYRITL
# eIF4H FP inh: inhibitors of RNA binding by human eIF4H; Q15056; eIF4H fluorescence polarization binding assay; inhibition, % at 35 µM; hit rate 0.94% among 290,000;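 active = 50% or more with normal probe brightness, or confirmed in later tests; inconclusive = above 50% with abnormal brightness, or retests that disagree; inactive = below 50% or failed in later tests; about a fifth of its hits are not listed in these tables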;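 also: calls also rest on retests at 20 µM and on dose response follow-up; 0% = protein and probe with vehicle and 100% = probe without protein; strong numbers were not always called active; many hits fall short of the cut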
# Yeast UUG start: alters start codon recognition fidelity in yeast. S. cerevisiae UUG-firefly luciferase reporter, luminescence/redox ratio. activity score, % at 18.7 µM. hit rate 0.13% among 350,000;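 active = replicate mean at a twofold rise or more, about +100% in these data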;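 also: firefly luciferase made from a UUG start codon reports start codon fidelity; reporter light over untreated wells divided by growth signal over untreated wells; some hits fall short of that in this replicate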
# MT1-MMP act inh: MT1-MMP (human) activation inhibition. hit rate 0.061% among 360,000. HT1080 RFP-PRO-GFP cells, GFP/RFP ratio fluorescence, overnight; percent of plate control window, DMSO zero. GFP/RFP ratio change, % at 20 µM. P50281;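 active = GFP/RFP ratio change of at least 30% with cell ATP level not reduced by more than half and red fluorescence within 50% of control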; also: strong numbers were not always called active
#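 Assay system: HT1080 RFP-PRO-GFP cells | Dosing: 20 µM single dose, 1% DMSO | Incubation: Cells overnight before dosing, compound overnight, 37 °C, 5% CO2 | Evaluation: GFP/RFP fluorescence ratio | Control set: DMSO-only wells and HT1080 RFP-L50D-GFP cell wells as references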
# HIV Env fusion: HIV envelope-mediated fusion inhibition; HeLa-JRFL Env/CEM21 cell fusion, luciferase; inhibition, % at 12.3 µM; hit rate 1.1% among 360,000;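 active = mean replicate inhibition score of at least 50 and every replicate individually at or above 50; inconclusive = only one of the two criteria met; inactive = mean below 50 and not all replicates reaching 50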;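 also: 0% = plate neutral controls and 100% = maraviroc near 300 nM; one replicate is shown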
# CSC inhib: blocks cancer stem cells; cancer stem cell-like cells viability, luminescence; inhibition, % at 7.5 µM; hit rate 1.1% among 300,000;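 active = mean at 75% or more and at least half the replicates too; inconclusive = mean and replicates disagree; tested in HMLE shEcad cells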;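 also: 0% = median of negative and 100% = median of positive control wells; the first replicate is given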
# PABP polyA inh: blocks human PABP binding to poly(A) RNA; P11940; fluorescence polarization; inhibition, % at 35 µM; hit rate 1% among 290,000;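 active = 50% or more with normal probe brightness, or confirmed in later tests; inconclusive = above 50% with abnormal brightness, or retests that disagree; inactive = below 50% or failed in later tests; about a fifth of its hits are not listed in these tables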;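 also: calls also rest on retests at 20 µM and on dose response follow-up; controls were probe without protein and protein plus probe with vehicle; some compounds called inactive have numbers as strong as hits; many hits fall short of the cut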
# Target sequence (P11940 whole entry, looked up): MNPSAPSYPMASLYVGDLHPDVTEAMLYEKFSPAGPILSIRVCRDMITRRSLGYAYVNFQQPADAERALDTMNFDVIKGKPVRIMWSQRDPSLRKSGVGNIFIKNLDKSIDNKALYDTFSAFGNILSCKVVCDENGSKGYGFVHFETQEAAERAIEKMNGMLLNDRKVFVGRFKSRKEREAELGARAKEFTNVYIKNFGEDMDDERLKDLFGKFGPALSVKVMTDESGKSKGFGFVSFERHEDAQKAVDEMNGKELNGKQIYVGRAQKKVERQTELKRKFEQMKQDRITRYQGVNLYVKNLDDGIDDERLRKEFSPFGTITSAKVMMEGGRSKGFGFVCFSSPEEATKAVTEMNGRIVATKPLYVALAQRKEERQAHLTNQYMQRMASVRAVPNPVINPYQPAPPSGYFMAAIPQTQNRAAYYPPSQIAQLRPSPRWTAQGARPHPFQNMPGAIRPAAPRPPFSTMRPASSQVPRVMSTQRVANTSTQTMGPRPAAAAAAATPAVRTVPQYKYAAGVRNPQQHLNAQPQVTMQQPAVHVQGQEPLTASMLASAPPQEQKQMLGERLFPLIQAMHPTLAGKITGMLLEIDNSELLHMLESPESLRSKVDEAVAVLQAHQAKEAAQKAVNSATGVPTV
# eIF4H FP inh retest: also measured in eIF4H FP inh; calls as there; inhibition, %; compound at 20 µM; confirmation average;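 mean of two retest wells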
# PABP polyA inh retest: recorded beside PABP polyA inh, whose call it bears; inhibition, %; compound at 20 µM; confirmation repeats;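 mean of two retest wells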
# MT1-MMP act inh RFP: further read-out of MT1-MMP act inh, marked with its call; RFP signal change, %; measured here: RFP expression control read;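 0 = vehicle wells; hits needed this value within 50% of zero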
# * hit, by the source's call; i = inactive; ? = inconclusive; · = not tested or not shown. This is a subset; rates above refer to the full screens.
SMILES,Rce1 inhib,eIF4H FP inh,Yeast UUG start,MT1-MMP act inh,MT1-MMP act inh RFP,HIV Env fusion,CSC inhib,PABP polyA inh,others
O=C(NCc1cccc(Cl)c1)C1CCC(=O)N(CCCN2CCOCC2)C1 (centres undefined),i,53.8,-14.6,3.9,0.5,5.1,·,4.6,eIF4H FP inh retest=-0.8;PABP polyA inh retest=9.9
N#Cc1cccc(S(=O)(=O)NCC(=O)OCC(=O)c2ccc[nH]2)c1,i,6.8,·,-2.2,-1.0,15.3,-19.0,-5.6,
Cc1ccc(C(C)(C)C)cc1S(=O)(=O)N1CCC(C(=O)N2CCN(c3ccc(O)cc3)CC2)CC1,·,·,-8.4,3.8,-18.5,9.3,·,·,
CC(C)=C1SC(N2CCN(c3ccc(Cl)cc3)CC2)=NC1=O,i,9.0,·,0.8,-2.8,-23.3,-4.8,?,
CN(C)c1ccc(C(=S)N2CCCCCC2)cc1,i,-14.8,-23.5,-0.9,0.8,-55.1,-4.7,6.3,
Cc1cc(O)c(C(C)C)cc1NC(=O)Cn1nc(C)c2ccccc2c1=O,i,4.4,2.2,3.1,0.2,-31.7,-14.4,6.0,
O=C(NCc1ccccn1)Nc1ccc(F)cc1F,i,5.2,-16.6,4.5,4.3,3.6,-5.7,4.3,
O=C(CSc1nnc(-c2c[nH]c3ccccc23)o1)NCC1CCCO1 (centres undefined),·,·,-6.1,1.2,4.0,4.0,-18.3,·,
S=C(Nc1ccc2nccnc2c1)N1CCCC1,i,9.5,·,-1.1,0.3,-1.4,12.6,9.6,
Cc1[nH]c2ccc(C(=O)NCCN3CCOCC3)cc2c1C,i,-6.3,-10.5,-0.3,2.4,-1.3,13.7,0.4,
COc1ccc(CC(NC(C)=O)C(=O)NC2CCN(C(=O)c3ccncc3)CC2)cc1OC (centres undefined),i,-0.8,-9.3,1.0,2.4,-17.0,1.0,2.2,
CCc1cccc(NC(=O)Cn2c3[n+](c4ccc(C(F)(F)F)cc42)CCCCC3)c1,i,-10.3,·,2.4,1.6,-26.7,-4.1,3.5,
C/C(=C/c1ccccc1)C(=O)N1CCN(c2ccccc2F)CC1,i,0.5,-0.2,2.4,2.6,-4.7,-13.3,-5.0,
CCOC(=O)N1CCN(CC(O)COCc2ccc(Cl)cc2)CC1 (centres undefined),·,-3.0,-10.2,1.4,2.1,·,·,11.5,
COc1ccc(C(=O)c2c(-c3ccc(OC)cc3)oc3ccccc23)cc1,·,·,-13.4,6.3,-0.2,4.6,-2.1,·,
S=C(NCCN1CCCCC1)Nc1ccccc1,i,-9.0,·,2.4,5.2,-0.2,-18.8,-12.2,
CN(C1CCCCC1)S(=O)(=O)c1cc2c3c(c1)CCN3C(=O)CC2,i,·,-6.7,-2.6,0.4,-4.0,-1.4,·,
Cc1occc1-c1nnc(SCC(=O)NC(C)(C)C)n1C(C)c1ccccc1 (centres undefined),i,5.6,-9.0,19.1,0.2,-35.9,-12.9,15.0,
CCN1C(=O)N[C@@H](c2cccc(C(F)(F)F)c2)C(C(C)=O)=C1C,i,·,-5.3,2.0,1.2,-13.5,-6.4,·,
COc1ccc(NC(=O)Nc2ccccc2F)c([N+](=O)[O-])c1,i,-8.8,·,·,·,-5.8,5.5,2.6,
O=C(c1ccc(Br)o1)N1CCN(c2ccc(F)cc2)CC1,i,-7.6,·,3.6,3.2,-31.1,-22.8,-6.2,
CC1CCN(Cc2nnnn2-c2ccc(Cl)cc2)CC1,i,-7.8,-14.1,3.7,4.2,-3.9,-8.3,-0.8,
CCc1nnc(NC(=O)c2cccc(S(=O)(=O)N3CCCC3)c2)s1,i,-2.0,-20.1,0.5,-3.4,5.1,-10.7,19.5,
CC(=O)Nc1cccc(NC(=O)C2C3C=CC(C3)C2C(=O)O)c1 (centres undefined),i,3.0,-49.7,-5.3,-2.8,2.3,5.6,9.1,
O=C(Nc1ccc(N2CCN(C(=O)c3ccco3)CC2)cc1)c1ccccc1,i,6.2,-4.9,-4.5,-2.5,-9.9,-11.3,8.2,

# Three structures from above, arranged by molecular weight, falling.
SMILES,Rce1 inhib,eIF4H FP inh,Yeast UUG start,MT1-MMP act inh,MT1-MMP act inh RFP,HIV Env fusion,CSC inhib,PABP polyA inh,others
O=C(c1ccc(Br)o1)N1CCN(c2ccc(F)cc2)CC1,i,-7.6,·,3.6,3.2,-31.1,-22.8,-6.2,
CC(=O)Nc1cccc(NC(=O)C2C3C=CC(C3)C2C(=O)O)c1 (centres undefined),i,3.0,-49.7,-5.3,-2.8,2.3,5.6,9.1,
S=C(Nc1ccc2nccnc2c1)N1CCCC1,i,9.5,·,-1.1,0.3,-1.4,12.6,9.6,

# New compounds follow:
SMILES,Rce1 inhib,eIF4H FP inh,Yeast UUG start,MT1-MMP act inh,MT1-MMP act inh RFP,HIV Env fusion,CSC inhib,PABP polyA inh,others
O=C(N/N=C1\CCCCc2ccccc21)c1ccccn1,i,3.4,·,-0.2,-0.2,-13.7,-6.2,0.4,
COc1ccc(N=CC2=C(O)CC(c3ccccc3)CC2=O)c(OC)c1 (centres undefined),i,2.9,·,-7.8,-2.6,3.0,38.8,-8.9,
Cc1ccc(-n2c(C)cc(C=C3C(=O)CC(C)(C)CC3=O)c2C)cc1,i,31.9,·,-3.2,-2.1,8.3,2.9,7.0,
O=S(=O)(c1ccccc1)N1CCN(Cc2cccc(Br)c2)CC1,i,·,-13.7,-1.0,-3.9,5.4,12.1,·,
CCOC(=O)N/N=C(\C)c1ccc(OC(F)F)cc1OC(F)F,i,-6.2,·,-1.5,2.2,-8.3,·,-1.8,
COc1ccc(-c2nc3ccccc3c(=O)n2CCc2ccc(O)cc2)cc1,i,4.4,·,-5.5,1.6,13.6,0.3,-1.1,
CC(C)CC(=O)Nc1nc(=S)ss1,i,1.4,·,4.2,3.0,·,-5.7,0.0,
CC[C@@]1(C(=O)OC)N[C@H](CN(C)C(=O)Nc2ccc(F)cc2)[C@@H]2C(=O)N(C)C(=O)[C@@H]21,·,·,-2.8,3.5,6.1,-30.6,·,·,
CC(=O)NCCNC(=O)C1(C)Cc2c(-c3ccccc3)ccnc2O1 (centres undefined),·,·,-8.9,0.5,-0.1,2.2,·,·,
N#Cc1nc(/C=C/c2ccccc2)oc1NCCCN1CCOCC1,?,0.4,·,4.1,1.0,-23.4,-24.7,4.6,
CCC(=O)c1ccc(OCC(=O)OCC(=O)N2c3ccccc3CC2C)cc1 (centres undefined),i,·,·,-1.5,1.0,2.0,-3.9,·,
CC(=O)N1CN(C2CCS(=O)(=O)C2)Cc2c1sc1c2CCCC1 (centres undefined),i,-1.0,-16.8,-0.6,6.6,·,-14.8,0.7,
O=C(O)/C=C/C(=O)Nc1ccc(OCc2ccccc2)cc1,i,1.4,·,1.3,2.5,-24.5,-1.7,3.4,
Cc1ccc(SCC(=O)Nc2ccc(N3CCN(c4ccccc4)CC3)c(F)c2)cc1,i,2.9,-4.2,5.2,-1.0,-63.7,-17.3,0.7,
CCN(CC)CCCN(C(=O)c1ccccc1C)c1nc(-c2ccc(OC)cc2)cs1,i,26.0,-0.3,-2.6,-0.1,1.4,-1.9,0.7,
CCN(CCO)c1ccc(N=Nc2cc(C)[nH]n2)cc1,i,28.2,·,20.8,3.4,39.5,-8.5,19.7,
NC(=O)C1(N2CCCC2)CCN(Cc2ccccc2)CC1,·,·,-6.4,7.7,4.6,12.2,·,·,
O=C(Nc1nc(=O)c2ccccc2s1)c1ccccc1,i,-11.7,-19.6,-1.1,0.7,-101.7,7.2,-0.1,
Cc1ccc(NS(=O)(=O)c2cc(C(=O)NCCSc3ccc(C)cc3)ccc2C)cc1,i,5.3,-11.0,-27.3,-20.0,97.0*,36.1,6.3,
CC(C)COP(=O)(OCC(C)C)C(O)c1ccccc1F (centres undefined),i,6.0,-12.1,4.8,6.4,·,-7.6,3.9,
CCOC(=O)C1=NN(C(C)=O)C2(CC(=O)N(c3cc(C)cc(C)c3)C2=O)C1 (centres undefined),i,-8.5,·,0.6,2.2,2.3,-12.2,-0.2,
COC(=O)c1cc2oc3ccccc3c2n1CC(=O)Nc1ccccc1OC,i,-0.7,·,-2.9,4.7,·,-7.0,-5.5,
C=CCn1cc(/C=C2/NC(=O)NC2=O)c2ccccc21,i,-10.8,·,-4.9,-5.6,24.3,12.8,-7.6,
c1csc(CNc2ncnc3nc[nH]c23)c1,i,3.4,-19.7,4.8,-1.2,-2.4,-10.5,-16.4,
Cc1cnc(=O)[nH]c1SCC(=O)Nc1nccs1,i,·,-4.1,-1.4,2.7,2.4,-10.6,·,
# (next part)
SMILES,Rce1 inhib,eIF4H FP inh,Yeast UUG start,MT1-MMP act inh,MT1-MMP act inh RFP,HIV Env fusion,CSC inhib,PABP polyA inh,others
O=C(/C=C/c1ccc2c(c1)OCO2)N1CCOCC1,i,-8.9,-14.0,0.9,-0.8,-123.7,4.9,0.8,
COc1cccc(NC(=O)COc2ccc3c(c2)CCC3)c1,i,-4.4,·,5.3,4.9,-15.5,·,10.5,
CC(=O)Nc1ccc(NC(=O)C(C)OC(=O)CCCOc2ccc(Cl)c(C)c2)cc1 (centres undefined),i,-8.2,-4.8,1.2,3.1,-5.3,·,-2.0,
O=C(c1ccc2nccnc2c1)N1CCN(Cc2ccc3c(c2)OCO3)CC1,i,3.7,1.1,-2.3,-4.7,·,·,11.4,
O=[N+]([O-])c1nn(-c2ccccc2)n(O)c1=NCc1ccc2c(c1)OCO2,i,-6.3,-15.3,-8.2,1.6,-19.5,·,3.5,
O=C(O)C1CCCCC1C(=O)NCCc1ccc(F)cc1 (centres undefined),i,-1.7,·,-0.7,1.1,-6.6,2.4,1.5,
Cc1cc(NC(=O)c2cnn3c(C(F)(F)F)cc(-c4ccccc4)nc23)no1,i,-1.0,-17.2,2.1,-2.1,·,3.1,0.7,
COCCCn1c(C(=O)NCCC2=CCCCC2)cc2c(=O)n3ccccc3nc21,i,-7.7,-15.5,2.1,3.3,-5.7,6.6,-3.6,
COc1ccccc1N(CC(=O)NC(C)(C)C)C(=O)c1ccc(Cl)nc1,i,-9.7,7.9,2.7,1.9,2.0,-10.0,2.9,
COc1ccc(S(=O)(=O)Nc2cccc(-n3cnnn3)c2)cc1,i,11.4,-6.2,5.6,-0.9,4.1,-1.4,12.8,
CNC(=O)CSc1nnc(-c2cccc(S(=O)(=O)N3CCOCC3)c2)n1-c1ccc(F)cc1,i,-5.6,-18.8,1.1,4.6,-79.4,-10.5,5.9,
CC(OC(=O)c1ccccc1NS(=O)(=O)c1cccc(N)c1)C(=O)N(C)Cc1ccccc1 (centres undefined),i,0.2,-13.6,-1.4,-7.9,·,11.0,-1.6,
CC1(C)Cc2ccccc2C(=NC(Cc2ccccc2)C(=O)O)N1 (centres undefined),i,8.4,4.0,-1.2,6.0,-14.8,-2.2,-6.2,
Cc1oc(C(C)(C)C)cc1C(=O)N1CCCC1C(=O)O (centres undefined),·,-7.8,-1.8,2.2,-0.9,-9.7,-15.5,-13.4,
CC(C)N(C(=O)Cn1cc(SCC(=O)NCc2ccco2)c2ccccc21)C(C)C,i,-4.6,-26.1,-5.2,-1.4,32.5,-4.8,?,
O=C1CC(N2CCN(Cc3ccccc3)CC2)C(=O)N1CCc1ccccc1 (centres undefined),i,0.4,5.7,13.8,1.5,-10.1,-7.6,-4.7,
O=C(COc1ccc(Br)cc1)N(Cc1cccs1)C1CCS(=O)(=O)C1 (centres undefined),i,-2.5,-24.8,-0.1,2.5,9.8,-18.0,-1.3,
COc1cccc(NC(=O)CN(C)C(=O)c2ccc(-c3cccc(C(F)(F)F)c3)o2)c1,i,·,·,5.0,-2.2,·,-0.9,·,
